# From PubChem BioAssay
# Env fusion inh: inhibitors of HIV Env-mediated cell fusion. HeLa-JRFL Env/CEM21 cell fusion, luciferase. inhibition, % at 12.3 µM. 360,000 tested, 1.1% active. AID 651610;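 active means mean replicate inhibition score of at least 50 and every replicate individually at or above 50; inconclusive means only one of the two criteria met; inactive means mean below 50 and not all replicates reaching 50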;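 further: 0% = plate neutral controls and 100% = maraviroc near 300 nM; one replicate is shown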
# eIF4H inh: inhibitors of RNA binding by human eIF4H; Q15056; eIF4H fluorescence polarization binding assay; inhibition, % at 35 µM; 290,000 tested, 0.94% active;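 active means 50% or more with normal probe brightness, or confirmed in later tests; inconclusive means above 50% with abnormal brightness, or retests that disagree; inactive means below 50% or failed in later tests; about a fifth of its hits are not listed in these tables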;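 further: calls also rest on retests at 20 µM and on dose response follow-up; 0% = protein and probe with vehicle and 100% = probe without protein; strong numbers were not always called active; many hits fall short of the cut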
# UUG fidelity: alters start codon recognition fidelity in yeast; activity score, % at 18.7 µM; S. cerevisiae UUG-firefly luciferase reporter, luminescence/redox ratio; 350,000 tested, 0.13% active;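 active means replicate mean at a twofold rise or more, about +100% in these data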;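 further: firefly luciferase made from a UUG start codon reports start codon fidelity; reporter light over untreated wells divided by growth signal over untreated wells; some hits fall short of that in this replicate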
# CSC inhib: blocks cancer stem cells; cancer stem cell-like cells viability, luminescence; inhibition, % at 7.5 µM; 300,000 tested, 1.1% active; AID 2717;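 active means mean at 75% or more and at least half the replicates too; inconclusive means mean and replicates disagree; tested in HMLE shEcad cells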;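 further: 0% = median of negative and 100% = median of positive control wells; the first replicate is given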
# Rce1 inh: blocks yeast Ras-converting enzyme; yeast membranes, quenched prenylated peptide cleavage fluorescence; Q03530; calls only; 290,000 tested, 0.27% active;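 active means fall in fluorescence gain of 50% or more versus controls, with final raw signal at or below 3038400; inconclusive means same 50% fall but final raw signal above 3038400; inactive means fall in fluorescence gain under 50%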;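 further: plate controls were neutral control wells for no effect and wells lacking membranes for full effect; tested at 10 µM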
# PABP FP inh: PABP-poly(A) binding inhibition; P11940; PABP-poly(A) RNA binding, fluorescence polarization; inhibition, % at 35 µM; 290,000 tested, 1% active;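 active means 50% or more with normal probe brightness, or confirmed in later tests; inconclusive means above 50% with abnormal brightness, or retests that disagree; inactive means below 50% or failed in later tests; about a fifth of its hits are not listed in these tables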;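 further: calls also rest on retests at 20 µM and on dose response follow-up; controls were probe without protein and protein plus probe with vehicle; some compounds called inactive have numbers as strong as hits; many hits fall short of the cut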
# Target sequence (P11940 whole entry, looked up): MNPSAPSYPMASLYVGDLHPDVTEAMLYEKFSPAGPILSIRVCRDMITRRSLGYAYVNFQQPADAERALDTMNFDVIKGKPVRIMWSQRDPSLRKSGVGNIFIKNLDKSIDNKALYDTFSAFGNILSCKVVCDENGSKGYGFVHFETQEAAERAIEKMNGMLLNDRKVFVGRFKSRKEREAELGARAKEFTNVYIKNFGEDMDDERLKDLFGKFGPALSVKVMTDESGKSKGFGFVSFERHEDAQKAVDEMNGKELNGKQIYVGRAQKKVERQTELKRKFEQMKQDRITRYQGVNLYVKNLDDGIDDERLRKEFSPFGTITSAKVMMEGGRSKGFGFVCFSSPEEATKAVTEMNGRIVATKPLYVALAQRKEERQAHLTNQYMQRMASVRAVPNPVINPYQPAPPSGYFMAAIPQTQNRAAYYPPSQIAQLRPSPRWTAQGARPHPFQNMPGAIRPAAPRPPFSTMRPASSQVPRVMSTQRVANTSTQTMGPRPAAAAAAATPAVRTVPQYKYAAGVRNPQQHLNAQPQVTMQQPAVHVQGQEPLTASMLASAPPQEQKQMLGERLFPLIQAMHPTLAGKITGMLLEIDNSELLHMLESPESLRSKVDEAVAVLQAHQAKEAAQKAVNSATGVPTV
# MT1-MMP act inh: inhibitors of human MT1-MMP activation. 360,000 tested, 0.061% active. HT1080 RFP-PRO-GFP cells, GFP/RFP ratio fluorescence, overnight; percent of plate control window, DMSO zero. GFP/RFP ratio change, % at 20 µM;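 active means GFP/RFP ratio change of at least 30% with cell ATP level not reduced by more than half and red fluorescence within 50% of control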; further: strong numbers were not always called active
#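 Read-out: GFP/RFP fluorescence ratio; Test system: RFP-PRO-GFP reporter HT1080 cells; Compound dosing: single-point 20 µM compound, 1% DMSO; Times: overnight compound exposure at 37 °C.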
# eIF4H inh retest: second read-out of eIF4H inh, no call of its own (marks repeat the call); inhibition, %; compound at 20 µM; confirmation average;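 mean of two retest wells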
# PABP FP inh retest: further read-out of PABP FP inh, marked with its call; inhibition, %; compound at 20 µM; confirmation repeats;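 mean of two retest wells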
# MT1-MMP act inh RFP: also measured in MT1-MMP act inh; calls as there; RFP signal change, %; measured here: RFP expression control read;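 0 = vehicle wells; hits needed this value within 50% of zero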
# * = called active by the depositor; i = inactive; u = inconclusive; x = no result given; & = joins results of further samples.
SMILES,Env fusion inh,eIF4H inh,UUG fidelity,CSC inhib,Rce1 inh,PABP FP inh,MT1-MMP act inh,MT1-MMP act inh RFP,others
COc1ccc(NC(=O)N2C[C@@H]3C[C@@H](C2)c2cccc(=O)n2C3)c(OC)c1,x,4,-14,-8,i,5,6,5,
CCOC(=O)C(O)(c1ccc(NC(=O)NC2CCCCC2)cc1)C(F)(F)F (configuration not stated),-125,2,-11,-6,i,-5,4,3,
CCC(=O)N1CC(=O)Nc2ccc(Cl)cc2C1c1ccc(F)cc1 (configuration not stated),-39,11,-5,-8,i,-9,-2,1,
CN1CCC(O)(c2ccccc2)C(C(=O)c2ccccc2)C1 (configuration not stated),-18,0,-12,6,i,-4,-2,3,
O=c1[nH]c(=S)n(-c2ccccc2)c(O)c1/C=N/N1CCCCC1c1cccnc1 (configuration not stated),13,53,-15,-3,i,35,-6,30,eIF4H inh retest=-12;PABP FP inh retest=48
CC1(C)C[C@H]2C=C(C=O)[C@]3(C=O)C[C@]3(C)[C@H]2C1,x,-3,6,-6,i,16,-10,-7,
Cc1ccc2ccccc2c1NC(=O)CNC1CCCCC1,-64,-8,1,x,i,-4,6,14,
Cc1ccc(NC(=S)NCCc2cnc[nH]2)cc1C,21,4,x,-7,i,-10,4,7,
COP(=O)(OC)C(NC(C)=O)C(Cl)(Cl)Cl (configuration not stated),-5,8,x,x,i,1,0,-1,
COc1cccc2c1O[C@H]1C(=O)CC[C@H]3CN(C)CCC231 (some centres not stated),28,x,-14,-11,i,x,-5,2,
CCCCOC(=O)c1ccc(NC(=O)c2c(O)[nH]c(=O)[nH]c2=O)cc1,13,x,-5,-7,i,x,3,3,
COC(=O)C1=Nc2ccccc2/C1=C\c1c(O)n(-c2cc(OC)ccc2OC)c(=O)[nH]c1=O,2,u,x,8,i,0,-6,-1,
COc1ccccc1N1CCN(Cc2ccc(Br)s2)CC1,-8,-4,-19,2,i,3,4,4,
CC(=O)N1CCN(c2ccc([N+](=O)[O-])cc2C=C2C(=O)NC(=O)NC2=O)CC1,x,0,-3,x,i,5,4,3,
CN(C)C(=O)Oc1ccc2nnc3ccnn3c2c1,19,43,-14,-13,i,7,-3,2,
O=C(N/N=C/c1c(O)n(C2CC2)c(=S)[nH]c1=O)c1ccccc1,-4,10,-20,4,i,1,7,14,
CCc1ccc(-n2c(O)c(/C=N/N3CCCCC3c3cccnc3)c(=O)[nH]c2=O)cc1 (configuration not stated),11,-5,x,-18,i,-11,-4,-5,
NC1=NC(c2cccnc2)n2c(nc3ccccc32)N1 (configuration not stated),3,1,x,-17,i,-5,x,x,
COc1cc2c(cc1/C=C/[N+](=O)[O-])OCO2,-73,-8,-16,x,i,-14,3,-7,
Nc1ccc([N+](=O)[O-])cc1,x,x,-12,22,x,x,1,8,
CC[n+]1c(/C=C/N(C)c2ccccc2)sc2ccc(Cl)cc21,79*,-7,-23,30,i,4,52*,-0.3*,
Cc1cc(OCC(=O)NC2CCS(=O)(=O)C2)c2c3c(c(=O)oc2c1)CCC3 (configuration not stated),1,-10,-1,-12,i,-9,3,-1,
CN1CCN(c2ccc(N)c(N3CCN(C)CC3)c2)CC1,x,31,x,-7,i,u,3,6,
CCN1CCN(C(=O)COc2ccc(S(=O)(=O)N(C)Cc3ccccc3)cc2)CC1,-10,-2,x,10,i,-2,0,-1,

# Compounds above containing a Cl atom:
SMILES,Env fusion inh,eIF4H inh,UUG fidelity,CSC inhib,Rce1 inh,PABP FP inh,MT1-MMP act inh,MT1-MMP act inh RFP,others
CCC(=O)N1CC(=O)Nc2ccc(Cl)cc2C1c1ccc(F)cc1 (configuration not stated),-39,11,-5,-8,i,-9,-2,1,
COP(=O)(OC)C(NC(C)=O)C(Cl)(Cl)Cl (configuration not stated),-5,8,x,x,i,1,0,-1,
CC[n+]1c(/C=C/N(C)c2ccccc2)sc2ccc(Cl)cc21,79*,-7,-23,30,i,4,52*,-0.3*,

# (continued)
SMILES,Env fusion inh,eIF4H inh,UUG fidelity,CSC inhib,Rce1 inh,PABP FP inh,MT1-MMP act inh,MT1-MMP act inh RFP,others
COc1ccc(OCC(=O)N2CCN(C(C)C)CC2)cc1,x,7,-4,-15,i,0,3,4,
CC(C)CC(NC(=O)CCCNC(=O)CCC(=O)OC1O[C@H]2OC3(C)CC[C@H]4[C@H](C)CCC(C1C)C24OO3)C(=O)O (some centres not stated),7,-6,8,13,i,-7,1,-12,
CC12CCC3C(CC=C4CC(O)CCC43C)C1C/C(=C\c1cccc(F)c1)C2=O (configuration not stated),15,5,1,31,i,0,-5,-14,
Cc1cccc2c(CCN)c[nH]c12,13,3,-14,-10,i,-3,1,5,
COc1ccc(-n2c(SC)nc3ccccc3c2=O)cc1,x,-5,-11,-2,i,-9,2,0,
O=c1[nH]c(O)c(C=NC2CCN(Cc3ccccc3)CC2)c(=O)[nH]1,x,x,-29,7,i,x,-1,2,
Cc1ccc(-c2nn(Cc3ccccc3)cc2C=O)cc1,9,0,x,9,i,-3,-4,-6,
CCN(CC)C(=O)c1ccc(NC(=O)c2cc(S(=O)(=O)N3CCCCCC3)ccc2OC)cc1,2,x,25,-9,i,x,-3,-10,
CCOP(=S)(OCC)N1CC1,24,x,4,x,x,x,0,5,
CCC1(CC)COP(=O)(OCC(Cl)CCl)OC1 (configuration not stated),16,x,7,x,x,x,2,0,
COc1ccc(C[C@H]2NC[C@H](O)[C@H]2OC(C)=O)cc1,0,x,-18,79*,i,x,-45,-50,
COc1cc(CC(=O)N2C[C@H]3C[C@@H](C2)c2cccc(=O)n2C3)cc(OC)c1OC,x,x,-8,-9,x,x,0,8,
N#Cc1ccc(CN2Cc3ccccc3-n3nncc3C2)cc1,-74,x,-6,x,x,x,6,3,
CC1CC(C)CN(CC(=O)c2ccc(OC(F)F)cc2)C1 (configuration not stated),2,-8,-17,2,i,-8,-1,6,
O=C(Nc1cc(Cl)cc(Cl)c1)N1Cc2ccccc2-n2nncc2C1,-34,x,-26,x,x,x,4,-3,
COC(=O)C1=C(c2ccc(-c3ccccc3)c(F)c2)C[C@@H]2CC[C@H]1N2C(=O)NC1CCCCC1,-15,x,-14,42,x,x,-21,-32,
CC1=NN(c2ccccc2)C(=O)C1/C=C1\C(=O)NC(=O)N(c2ccc(C)c(C)c2)C1=O (configuration not stated),x,31,-14,5,i,9,-9,4,
Cc1ccc(C(=O)C2CN3CCC2CC3)cc1 (configuration not stated),x,-4,-8,-7,i,-14,-2,-1,
COC(=O)CC(NC(=S)N1CC2C[C@@H](C1)Cn1c2cccc1=O)C(=O)OC (some centres not stated),-9,-6,x,-19,i,6,-5,2,
Cc1ccccc1CN1Cc2cnnn2-c2ccccc2C1C#N (configuration not stated),-66,x,2,x,x,x,7,-12,
CCC(C)n1c(O)c(C=NCCN2CCOCC2)c(=O)[nH]c1=S (configuration not stated),-8,-5,x,-10,i,3,-4,0,
O=C(NCC(c1cccnc1)N1CCN(c2ccc(F)cc2)CC1)Oc1ccccc1 (configuration not stated),x,6,2,0,i,-10,6,-6,
O=P1(Oc2ccccc2)CC=C[C@H](COCc2ccccc2)O1 (some centres not stated),-12,-6,-10,-12,i,-9,0,4,
O=C(c1ccc(C(F)(F)F)cc1)C1CCCN(C2CCSCC2)C1 (configuration not stated),3,-1,13,41,i,-6,-1,-4,
COCCCn1c(N)c(C(=O)Nc2sc3c(c2C(=O)OC)CCCC3)c2nc3ccccc3nc21,x,u,-2,-2,i,u,-68,4,
O=c1[nH]c2ccccc2n1C1CCN(C(c2cccc3ccccc23)c2nnnn2Cc2ccccc2)CC1 (configuration not stated),-65,x,-22,x,x,x,-15,-8,
COc1ccccc1NC1(C#N)CCCCC1,5,3,x,-9,i,-6,0,2,
O=[N+]([O-])c1cc(F)c(N2CCCC2)cc1Br,-17,-2,-13,-10,i,3,-3,-10,
CN(C)CC1CCCCC1=O (configuration not stated),10,1,x,-13,i,-3,2,4,
COc1c(C)cc(C(=O)C2CCCN(Cc3cccc(C)n3)C2)cc1C (configuration not stated),17,-10,x,4,i,-6,3,3,
COc1ccc(CCN(C)Cc2ccncc2)cc1OC,x,-10,-13,-3,i,11,5,6,
COCc1c(CN)cnc(C)c1N,-8,15,x,-12,i,23,-5,0,
COc1ccc(-n2c(-c3ccccc3[N+](=O)[O-])nc3ccccc3c2=O)cc1,-6,-5,-3,-16,i,15,-3,-3,
Cc1cccc(-n2c(O)c(/C=C3/C(c4ccccc4)=Nc4ccccc43)c(=O)[nH]c2=O)c1,92*,u,x,65,i,u,-7,4,
FCCN(CCF)c1cccc(Cl)c1,7,5,x,-13,i,8,x,x,
CC(C)Oc1cccc(NC(=O)c2cccn(Cc3ccc4c(c3)OC(F)(F)O4)c2=O)c1,43,-7,-8,44,i,-2,5,-4,
CCN(CC)P(=S)(c1c(C)nc2ccccn12)c1c(C)nc2ccccn12,-3,-9,-4,-7,i,-2,-5,-3,
CC(NC(C)(C)C)C(=O)c1cccc(Cl)c1 (configuration not stated),x,1,-19,-13&-9,i,9,2,1,
O=C(O)C1C2CC3CC(C2)CC1(n1ncc(N2CCC4(CC2)OCCO4)c(Cl)c1=O)C3 (configuration not stated),-15,-9,x,-3,i,-6,-2,4,
CCOc1cc(/C=C2\C(=O)NC(=O)N(C)C2=O)cc([N+](=O)[O-])c1O,-22,0,-20,-2,i,-8,3,6,
COc1ccc(N=C(C)c2c(O)[nH]c(=O)[nH]c2=O)cc1,16,-11,-29,0,i,-4,3,0,
c1ccc(CCNCc2cccs2)cc1,-5,-6,-10,-16,i,-4,1,3,
CC(=O)O[C@H]1CC[C@@]2(C)C(=CC[C@@H]3[C@@H]2CC[C@]2(C)C(=O)CC[C@@H]32)C1,x,x,-7,32,x,x,1,-2,
CCOC(=O)N(CC)c1ccc(C(O)(C(=O)OC)C(F)(F)F)cc1 (configuration not stated),-19,1,-5,-2,i,-4,2,4,
C#C[C@@]1(O)CCC2C3CCC4=C/C(=N/OCC(=O)NC(CCC(N)=O)C(=O)O)CC[C@]4(C)C3CC[C@@]21C (some centres not stated),-22,-12,3,-5,i,5,-1,-1,
CCN(CC)C(=O)Cn1cc(C=C2C(=O)N(C)C(=O)N(C)C2=O)c2ccccc21,-5,u,-2,-10,i,u,0,4,
O=C1OC(c2ccc(Br)cc2)=N/C1=C\N1CC2CC(C1)c1cccc(=O)n1C2 (configuration not stated),-12,-10,-11,-16,i,-9,-7,-7,
COCCNP(=O)(c1ccccc1)c1nc2ccccc2s1 (configuration not stated),x,-1,x,1,i,-5,x,x,
OCCOCC#CCN1CCOCC1,x,-3,-15,-13,i,2,4,2,
C=C1C[C@]2(O)[C@@]3(C)CCC(=O)C(C)(C)C3=C(O)C(=O)[C@@]2(C)[C@@H]2C(=O)O[C@@](C)(C(=O)OC)C(=O)[C@@]12C,x,14,-2,-4,i,27,0,-1,
CCCCCCC(=O)N/N=C/c1c(O)n(CCc2ccccc2)c(=O)[nH]c1=O,17,6,-8,10,i,-8,1,2,
O=C1C2CCCN2C(c2cccnc2)N1c1ccc(Cl)cc1 (configuration not stated),20,-4,-9,2,i,-4,1,4,
O=C(O)[C@@H]1C[C@H]1[C@@H](NP(=O)(c1ccccc1)c1ccccc1)c1ccccc1,6,4,-22,-1,i,-2,-3,2,
O=[N+]([O-])c1ccc(-[n+]2c(-c3ccccc3)cc(-c3ccccc3)cc2-c2ccccc2)cc1,17,-6,-8,0,i,0,5,0,

# Some of the compounds tested; the hit share may differ from the screen's.
